Compound activity: PubChem, Johns Hopkins Ion Channel Center
KCNQ2 enhance: potentiators of rat KCNQ2 potassium channel; CHO-K1 KCNQ2, FluxOR thallium flux fluorescence; hits give high values; B-score at 10 µM; hit rate 0.54% among 310,000;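 active = fluorescence ratio B-score at least 3 SD of library B-scores, with initial fluorescence B-score within 3 SD, cut at about 5.3 in these data; same plate scores as AID 2156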;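 note: B-score of peak minus minimum over baseline fluorescence ratio after K+ and Tl+ stimulus; positive B-score means potentiation of KCNQ2 with more thallium influx and brighter signal; only the inactives scoring about 0 or higher are listed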
Target sequence (O88943 whole entry, looked up): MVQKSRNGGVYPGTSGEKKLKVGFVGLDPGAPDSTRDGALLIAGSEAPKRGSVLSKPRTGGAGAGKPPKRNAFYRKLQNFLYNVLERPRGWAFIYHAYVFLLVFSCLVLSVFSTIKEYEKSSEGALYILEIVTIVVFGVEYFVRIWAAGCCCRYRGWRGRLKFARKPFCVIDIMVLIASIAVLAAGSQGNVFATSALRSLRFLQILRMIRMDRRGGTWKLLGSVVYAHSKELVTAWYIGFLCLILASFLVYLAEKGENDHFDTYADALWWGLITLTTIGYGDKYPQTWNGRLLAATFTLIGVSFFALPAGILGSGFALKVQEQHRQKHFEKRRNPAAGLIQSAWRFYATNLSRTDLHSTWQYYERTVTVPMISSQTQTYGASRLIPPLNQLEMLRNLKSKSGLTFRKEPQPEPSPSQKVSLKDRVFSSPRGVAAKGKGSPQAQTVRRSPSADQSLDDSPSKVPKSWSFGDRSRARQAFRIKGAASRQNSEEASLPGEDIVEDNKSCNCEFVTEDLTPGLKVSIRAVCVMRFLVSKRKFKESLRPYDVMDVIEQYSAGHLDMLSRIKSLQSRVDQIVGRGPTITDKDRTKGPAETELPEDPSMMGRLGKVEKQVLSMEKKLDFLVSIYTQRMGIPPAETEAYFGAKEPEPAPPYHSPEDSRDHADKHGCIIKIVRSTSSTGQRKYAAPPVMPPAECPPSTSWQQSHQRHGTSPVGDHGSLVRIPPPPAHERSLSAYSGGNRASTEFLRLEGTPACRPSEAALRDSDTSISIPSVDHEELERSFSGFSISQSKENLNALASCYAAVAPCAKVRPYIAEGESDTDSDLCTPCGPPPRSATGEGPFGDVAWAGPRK
KCNQ2 enhance baseline: further read-out of KCNQ2 enhance, marked with its call; B-score; compound at 10 µM; measured here: initial fluorescence intensity artifact check;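 brightness before thallium and not channel activity; 0 = typical well and far values either way flag optical interference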
* marks the source's active call; other numbers are inactive results. An excerpt. The share of hits here may be higher or lower than overall.

structure	KCNQ2 enhance	KCNQ2 enhance baseline
N#C/C(=C\c1ccc(OCC(N)=O)cc1)C(=O)NC1CC1	0.28	-0.14
Cc1ccc(-n2ncc3c(=O)n(CC(=O)N4CCN(c5ccccc5)CC4)cnc32)cc1C	1	0.1
Clc1ccc(OCc2nn[nH]n2)cc1	0.14	-1
CCN(CC)CCN1C(=O)C(=O)/C(=C(/O)c2ccc3c(c2)CC(C)O3)C1c1ccc(OC)cc1 (centres undefined)	0.34	-0.96
COc1cc(/C=N/Nc2nncn2N)ccc1OCc1c(C)no[n+]1[O-]	0.87	-0.51
CCc1c(C)nc(N2CCN(Cc3ccc4c(c3)OCO4)CC2)[nH]c1=O	0.72	-0.6
Cc1ccc2cn[nH]c2c1N	1.6	-0.19
FC(F)(F)c1nnc2ccc(Cl)nn12	0.16	1
O=C(CN1C(=O)NC2(CCCCC2)C1=O)N1CCN(S(=O)(=O)c2ccccc2)CC1	0.22	1.8
CCC1(C)Cc2c(sc3nnn(CC(=O)Nc4ccc(C)cc4)c(=O)c23)CO1 (centres undefined)	3.4	-0.36
Cc1cccc(NS(=O)(=O)c2nnc(NC(=O)c3cccc(C)c3)s2)c1	1.9	-3.8
COc1cc(/C=C(\NC(C)=O)C(=O)NC(C)(C)CC(C)(C)C)ccc1OC(C)=O	1	-0.43
c1ccc(OCc2nn3c(Cn4cnc5ccccc54)nnc3s2)cc1	0.57	-0.91
CC(=O)Nc1ccc(Oc2ncccn2)c(Cl)c1	0.78	-1.1
O=C(NCCCl)Nc1cccnc1Cl	1.6	-2.8
CS(=O)(=O)N1CCC(C(=O)Nc2ccc(F)cc2F)CC1	0.06	-0.43
O=C(NC(=S)N1CCN(c2ccc([N+](=O)[O-])cc2)CC1)c1ccccc1Cl	2.4	-0.44
COCC(C)n1c(=O)sc2ccccc2c1=O (centres undefined)	1.6	0.56
COC(=O)c1ccc(CN2CCC(n3nccc3NC(=O)C3CCCC3)CC2)cc1	0.06	0.52
Cc1c(C)n(C(=O)CSc2ncn[nH]2)c2ccccc12	0.74	3.6
COC(=O)c1cccc(NC(=O)COC(=O)CSc2nc(C)cc(C)n2)c1	1.2	-0.73
COc1cccc(-c2nc3ccccc3s2)c1	0.13	-1.6
Cc1cc(=O)oc2cc(NC(=O)c3cccc(F)c3)ccc12	0.85	1.4
Nc1n[nH]c2c1C1(CCCCC1)Cc1ccccc1-2	1.6	-0.55
CCc1nn2c(=O)cc(COc3ccc(/C=C4\C(=N)N5N=C(CC(C)C)SC5=NC4=O)cc3)nc2s1	1.2	-1.2
Cc1ccc(S(=O)(=O)n2c([N+](=O)[O-])cnc2C)c(C)c1C	1.8	-0.53
O=C(c1cccs1)N1CCCC(c2nc3c(nnn3Cc3c(Cl)cccc3Cl)c(=O)[nH]2)C1 (centres undefined)	0.52	0.54
Cc1ccc(S(=O)(=O)NC2CCC(C(=O)O)CC2)cc1 (centres undefined)	0.1	-0.17
O=C(NNc1ccc(Cl)cc1)c1cccs1	0.89	-0.13
CCN(CC(=O)NCCCN1CCOCC1)S(=O)(=O)c1cc(Cl)ccc1Cl	1.9	0.18
Cc1cc(Br)ccc1NC(=O)c1ccc(-n2cncn2)c([N+](=O)[O-])c1	0.16	-0.51
CCOC(=O)c1c(Nc2ccccc2)sc(/C=C2\C=Nc3ccccc32)c1O	0.66	-1.1
Clc1cccc(-c2ccc(C=Nc3ccc(N4CCOCC4)cc3)o2)c1Cl	0.05	-2.9
O=C(c1cccs1)N1CCN(S(=O)(=O)c2cccs2)CC1	2	-1
CCOC(=O)CN(C(=O)CSc1nnc(C)n1-c1ccccc1)c1ccccc1	0.98	0.65
CC(=O)NC(Cc1ccccc1)c1ccc2c(c1)OCCCO2 (centres undefined)	0.81	2.2
Cc1ccc(NC(=O)N2CCCC2C(=O)Nc2nnc(C(C)C)s2)cc1 (centres undefined)	0.92	0.49
CN(C)C(=O)c1cc(C(=O)c2ccc(Cl)cc2Cl)c[nH]1	0.32	-0.14
CCn1c(SCC(=O)N2CCCC2)nc2c(c1=O)SCC2	1.9	0.97
COC(=O)c1c(C)[nH]c(O)c1C=Nc1ccc(C(C)C)cc1	1	-1.6
Cc1ccc(C(=O)NCCCNC(=O)c2ccccn2)cc1	0.48	0.65
CC(=O)NS(=O)(=O)c1ccc2c(c1)C(=O)c1cc(S(=O)(=O)NC(C)=O)ccc1-2	0.42	-0.64
COC(=O)C1=C(C)N(c2ccc(C(=O)OC)cc2)C(=O)C1	0.77	-0.46
COc1cc(NC(=O)C2C3CCC(O3)C2C(=O)O)cc(OC)c1 (centres undefined)	0.11	-0.12
COc1cc2ccccc2cc1C(=O)Nc1ccc2oc(=O)ccc2c1	0.63	-1.5
O=C(c1cnn2c(C(F)F)cc(-c3ccccc3)nc12)N1CCCCC1c1cccnc1 (centres undefined)	0.12	-0.4
CCCCC(=O)Nc1cccn2ncnc12	0.06	0.9
Cc1ccc(OCCC(=O)OCC(=O)NCc2ccccc2)cc1	5	1.9
CC(=O)n1nc(-c2cccc(C)c2)nc1SCC(=O)Nc1ccccc1	0.05	-0.4
CC(Oc1cccc(NC(=O)c2cccs2)c1)C(=O)c1ccccc1 (centres undefined)	1.3	-1.3
Cc1cccc(OCCCC(=O)Nc2ccc(S(N)(=O)=O)cc2)c1C	1.6	-1.3
NC(=O)CSc1nnc(Cc2ccc3c(c2)OCO3)o1	0.07	-1.4
CC1CC(=O)c2cnc(NCc3ccco3)nc2C1 (centres undefined)	0.14	1.1
CC1(C)CC(=O)N(Cc2ccccc2)C(=O)C1	1.4	-1.5
O=C(Cn1[nH]c(=O)c2ccccc2c1=O)Nc1ccc(-c2nnc3n2CCCCC3)cc1	1.2	-2.1
COc1ccc(NC(=O)c2cccnc2SC)cc1S(=O)(=O)N1CCCCC1	0.45	-0.1
CN(C)CCOc1cccc(Cl)c1	1.1	-0.77
CS(=O)(=O)N1CCC(C(=O)N2CCc3ccccc3C2)CC1	0.78	-0.37
CCOC(=O)c1ccc(NC(=O)c2ccccc2N(C)S(=O)(=O)c2ccccc2)cc1	0.36	-0.24
COc1ccc(COC(=O)Nc2cn(C)nc2C(F)(F)F)cc1	1.2	2.1

Continued.
structure	KCNQ2 enhance	KCNQ2 enhance baseline
CCc1nnc(NC(=O)c2cc([N+](=O)[O-])ccc2N2CCOCC2)s1	0.96	0.2
CC1CC1C(=O)OCC(=O)Nc1ccccc1Oc1ccccc1 (centres undefined)	0.91	1.4
CCN(CC(=O)N1CCN(C)CC1)S(=O)(=O)c1ccc(Cl)cc1	0.01	-0.85
COC(=O)[C@@H](NC(=O)NC(C)CCc1ccccc1)C(C)C (some centres undefined)	0.66	-0.9
CC(C)(C)c1ccc(NC(=O)CSc2nnc(-c3n[nH]c4ccccc34)o2)cc1	0.62	-1.8
Cc1cc2[nH]c(=O)c(=O)[nH]c2cc1S(=O)(=O)NCc1ccc(Cl)cc1	1.7	-0.36
COc1cccc(C(=O)NC2CC3CCCC(C2)N3CC(=O)Nc2ccccc2)c1 (centres undefined)	0.59	-0.95
N#CC1=C(N)Oc2c(O)cc3ccccc3c2C1c1ccsc1 (centres undefined)	3.2	-0.82
COc1ccc(OC)c(NC(=O)CSc2nnc(CNC(=O)c3cccs3)o2)c1	0.21	1.1
Cc1ccc(NC(=O)COc2ccc(C(=O)c3ccccc3)cc2)c(O)c1	0.37	1.8
NC(=O)C1CCN(c2oc(/C=C/c3ccc(F)cc3)nc2S(=O)(=O)c2ccccc2)CC1	1.9	-0.03
CCCCc1nnc(NC(=O)c2ccc3c(=O)n4c(nc3c2)CCC4)s1	1.5	0.39

Random excerpt: two entries already listed
structure	KCNQ2 enhance	KCNQ2 enhance baseline
COc1cccc(C(=O)NC2CC3CCCC(C2)N3CC(=O)Nc2ccccc2)c1 (centres undefined)	0.59	-0.95
CCc1nnc(NC(=O)c2cc([N+](=O)[O-])ccc2N2CCOCC2)s1	0.96	0.2

Next section:
structure	KCNQ2 enhance	KCNQ2 enhance baseline
COc1cc(/C=N/NC(=O)c2ccoc2C)ccc1O	1	-0.84
COc1ccc(OC)c(C2=NOC(C(=O)NCc3ccccn3)C2)c1 (centres undefined)	0.64	0.17
O=C(CSc1nnc2ccccn12)NCc1cccs1	0.02	0.73
N#C/C=C/N1CCC(Cc2ccccc2)CC1	0.32	0.1
CCOC(=O)c1c(C)[nH]c(C(=O)COC(=O)/C=C/c2ccc(OCC#N)c(OC)c2)c1C	1.1	0.02
CCOc1ccc(N=C(NC#N)SC)cc1	1.6	-2
COc1ccc(Cc2nnc(N/N=C(\C)c3ccccc3)[nH]c2=O)cc1OC	0.72	1.1
O=C(CN1C2=NCCN2c2ccccc21)c1ccc2c(c1)OCO2	0.02	0.74
CS(=O)(=O)Nc1ccccc1C(=O)NCC1(N2CCCCC2)CCCCC1	1.6	-1.2
O=C(COc1ncnc2sccc12)NC1CCCc2ccccc21 (centres undefined)	0.05	-1.6
O=C(Nc1ccccc1F)NC1CC1	1.2	-0.91
COc1ccc(C)cc1NC(=O)c1ccoc1C	0.01	1.1

Four entries already listed, sorted by heavy-atom count, falling.
structure	KCNQ2 enhance	KCNQ2 enhance baseline
COc1ccc(Cc2nnc(N/N=C(\C)c3ccccc3)[nH]c2=O)cc1OC	0.72	1.1
CS(=O)(=O)Nc1ccccc1C(=O)NCC1(N2CCCCC2)CCCCC1	1.6	-1.2
COc1cc(/C=N/NC(=O)c2ccoc2C)ccc1O	1	-0.84
CCOc1ccc(N=C(NC#N)SC)cc1	1.6	-2

Next section
structure	KCNQ2 enhance	KCNQ2 enhance baseline
O=C(CCNS(=O)(=O)c1ccc(Br)s1)NCc1ccc(F)cc1	0.09	1.3
Cc1ccc2c(c1)NC(=O)C(N1CCOCC1)(C(F)(F)F)O2 (centres undefined)	0.31	-1.1
CC(C)CN(C(=O)COC(=O)C(C)N1C(=O)c2ccccc2C1=O)c1c(N)n(Cc2ccccc2)c(=O)[nH]c1=O (centres undefined)	0.71	0.68
Cc1nn(-c2ccc(Cl)cc2)c2sc(C(=O)c3c(N)n(C)c(=O)n(C)c3=O)cc12	0.12	-1.1
O=C(CN1C(=O)C2CC=CCC2C1=O)NCC(=O)Nc1ccc(F)c(F)c1F (centres undefined)	0.79	-0.16
COc1ccc(Cl)cc1NC(=S)NNC(=O)C1(C)CC1(Cl)Cl (centres undefined)	0.03	1.4
CC(=O)Nc1ccc(S(=O)(=O)Nc2cc(C)cn(Cc3ccccc3)c2=O)cc1	0.92	-1.3
CCn1ccc(C(=O)Nc2ccccc2Cl)n1	1	0.47
COc1ccc(NC(=S)NCc2ccccc2)c(OC)c1	0.32	1.1
COc1cc(NC(=O)C(=O)NNC(=O)C2CCCCC2)c(OC)cc1Cl	9.8*	0.22*
COc1ccccc1OCC(=O)NN1Cc2ccccc2C1=N	0.43	1.7
CCN(CC)c1nc2c(c(=O)[nH]c(=O)n2C)n1Cc1ccccc1	0.32	-0.43
Cn1nccc1C(=O)Nc1ccc2c(c1)OCCO2	0.04	0.04
COc1ccc(C(=O)NNC2=NC(C)(C)Cc3ccccc32)cc1	0.87	1.5
Cc1ccc(-c2nc(CS(=O)CC(=O)NCc3ccc4c(c3)OCO4)c(C)o2)cc1 (centres undefined)	0.51	-0.06
CC1(C)Cc2c(sc(NC(=O)COc3ccc(Cl)cc3)c2C(N)=O)C(C)(C)N1	0.19	-1.3
O=C(CNC(=O)c1ccc(Cl)cc1Cl)OCN1C(=O)c2ccccc2C1=O	1.8	-3.7
Cn1ccsc1=NC(=O)c1ccc(S(=O)(=O)C(F)F)cc1	0.25	-0.58
Cc1n[nH]c(C)c1S(=O)(=O)N1CCCCCC1	1.6	-1.1
CC(C)CC(C(=O)OCC(=O)c1c(N)n(C)c(=O)n(C)c1=O)N1C(=O)c2ccccc2C1=O (centres undefined)	0.67	-0.89
O=C(Nc1n[nH]c(C(F)(F)F)n1)C1CC1	0.1	-0.6
Cc1ccc(S(N)(=O)=O)cc1NC(=O)/C=C/c1cccs1	0.01	2.1
CCCCn1c(N)c(N(CCOC)C(=O)c2ccc3c(c2)OCCO3)c(=O)[nH]c1=O	1.5	0.16
CC(=O)NC1=NN(C(C)=O)C(C)(CS(=O)(=O)c2ccc3ccccc3c2)S1 (centres undefined)	0.44	0.73
COC(=O)CCN(C(=O)c1cc(OC)c(OC)c(OC)c1)c1ccccn1	1	-0.05
O=c1[nH]ncn1-c1ccc(Br)cc1	1.4	0.07
COC(=O)Cc1[nH]nc2c1C(C1C=CCCC1)C(C#N)=C(N)O2 (centres undefined)	0.05	-0.74
CSc1cccc(NS(=O)(=O)c2ccc(-c3coc(C)n3)cc2)c1	0.12	0.67
CCN(CC(=O)NCc1cccs1)C(=O)c1ccc(S(=O)(=O)Nc2cccc(C)c2C)cc1	1.6	-1.3
